Screens from PubChem BioAssay.
VCAM-1 inhibition – inhibitors of TNFa-induced VCAM-1 surface display, cell-based, plate reader, pooled HUVEC, TNFa stimulus (AID 454); 10,000 tested, 0.2% active; HUVEC TNFa-induced VCAM-1 surface immunofluorescence, plate reader; numbers were filed only for top-ranked candidate wells; inhibition, % at 5 µM;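 active = compound among top-ranked inhibitors of TNF-induced VCAM-1 adhesion protein staining, with the hit upheld by image or statistical review; inactive = the rest, including hits rejected on review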;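 note: 0% = TNFa with vehicle and 100% = cells without TNFa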
VCAM-1 up imaging – enhancers of VCAM-1 display on endothelial cells, imaging, high-content imaging, pooled HUVEC, TNFa stimulus (AID 457); Pooled HUVEC, TNFa-induced VCAM-1 immunofluorescence imaging; hits of this screen are not shown here; calls only; 10,000 tested, 0.2% active;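 active = a top-ranked rise in VCAM-1 staining upheld on image or statistical review; inactive = the rest, including candidates rejected on review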;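 note: compounds tested at 5 µM in the well; cells exposed to compound for 24 hours before fixing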
VCAM-1 imaging – inhibitors of TNFa-induced VCAM-1 surface display, imaging, high-content imaging, pooled HUVEC, TNFa stimulus (AID 456); HUVEC TNFa-induced VCAM-1 surface expression, immunofluorescence imaging; numbers were filed only for top-ranked candidate wells; inhibition, % at 5 µM; hits with a dose series show IC50 in µM; 10,000 tested, 0.2% active;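 active = top tenth filtered wells with inhibition above zero that passed visual or statistical confirmation; inactive = the rest, including hits rejected on review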;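 note: 0% = stimulated vehicle wells and 100% = unstimulated cells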
FPR binder – ligands of human FPR, also counter-screen for FPRL1 ligands | inhibition, %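 (tested at 6.7 µM)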 | AID 440 | 24,000 tested, 0.74% active | P21462 | FPR-expressing cells, fluorescent ligand binding, flow cytometry;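 note: 0% = buffer wells and 100% = receptor blocker peptide wells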
Target sequence (P21462 whole entry, looked up): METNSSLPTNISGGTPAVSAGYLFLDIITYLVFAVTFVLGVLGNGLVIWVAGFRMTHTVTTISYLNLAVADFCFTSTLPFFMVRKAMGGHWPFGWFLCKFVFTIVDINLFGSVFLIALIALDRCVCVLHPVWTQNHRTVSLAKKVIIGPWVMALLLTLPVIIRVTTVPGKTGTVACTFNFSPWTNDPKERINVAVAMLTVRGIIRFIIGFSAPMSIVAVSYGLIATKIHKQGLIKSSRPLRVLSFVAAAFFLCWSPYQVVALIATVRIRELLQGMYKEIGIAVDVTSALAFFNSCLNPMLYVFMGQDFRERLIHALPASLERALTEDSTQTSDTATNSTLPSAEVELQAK
FPRL1 binder – binds the human formylpeptide receptor-like-1 FPRL1. AID 441. inhibition, %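 (tested at 6.7 µM)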. 24,000 tested, 0.3% active. FPRL1-expressing cells, fluorescent ligand binding inhibition, flow cytometry;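 note: 0% = buffer alone and 100% = receptor blocker peptide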
Target sequence (P25090 whole entry, looked up): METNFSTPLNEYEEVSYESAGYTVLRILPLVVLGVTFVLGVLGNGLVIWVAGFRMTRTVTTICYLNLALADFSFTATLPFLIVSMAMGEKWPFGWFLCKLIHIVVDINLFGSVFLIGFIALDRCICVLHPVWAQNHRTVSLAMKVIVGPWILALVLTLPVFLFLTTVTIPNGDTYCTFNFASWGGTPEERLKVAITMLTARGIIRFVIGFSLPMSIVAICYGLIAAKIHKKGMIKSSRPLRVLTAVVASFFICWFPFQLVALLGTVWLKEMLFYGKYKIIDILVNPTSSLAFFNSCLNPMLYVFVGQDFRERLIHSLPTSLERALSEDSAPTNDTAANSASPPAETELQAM
* = called active by the depositor.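 Rule for the calls, unless noted: active = mean above 30%; inconclusive = self-fluorescent; inactive = the rest.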

Screening CC(C)(C)N(Cc1cc2ccccc2[nH]c1=O)C(=O)C1CCCCC1 returned VCAM-1 inhibition inactive, VCAM-1 up imaging inactive, VCAM-1 imaging inactive, FPR binder 0 and FPRL1 binder 1.
CC(NS(C)(=O)=O)C(c1cccs1)N1CCN(C)CC1 (stereo not drawn) was read as FPR binder 0 and FPRL1 binder 5.
Cn1c(=O)c2c(nc(CN3CCCCC3)n2CCc2ccccc2)n(C)c1=O was read as VCAM-1 inhibition inactive, VCAM-1 up imaging inactive, VCAM-1 imaging inactive, FPR binder -6 and FPRL1 binder -3.
CCOc1ccc(C2C(C(=O)O)c3ccccc3C(=O)N2CCN2CCOCC2)cc1 (stereo not drawn) was read as FPR binder 15 and FPRL1 binder 1.
CCN(CC)c1ccc(NC(=O)c2cncc(Br)c2)cc1 was read as VCAM-1 inhibition inactive, VCAM-1 up imaging inactive, VCAM-1 imaging inactive, FPR binder 4 and FPRL1 binder -4.
`CCCOC(=O)CSc1nc(N)c(C#N)c(CC)c1C#N` gave VCAM-1 inhibition inactive, VCAM-1 up imaging inactive, VCAM-1 imaging inactive, FPR binder 5 and FPRL1 binder -3.
Screening COc1ccc(Cc2n[nH]c(=O)c3ccccc23)cc1OC returned FPR binder 6 and FPRL1 binder -5.
`CCCc1cc(=O)[nH]c(SCc2ccccc2)n1` gave VCAM-1 inhibition inactive, VCAM-1 up imaging inactive, VCAM-1 imaging inactive, FPR binder 12 and FPRL1 binder 7.
CCOC(=O)c1c(C)oc2c1cc(O)c1ccccc12 was read as FPR binder -2 and FPRL1 binder 6.
COCCCNC(=O)C1CC(=O)N(Cc2ccc(OC)cc2)C1 (stereo not drawn) was read as FPR binder -1 and FPRL1 binder 1.
Screening CCOC(=O)N1CCC(NS(=O)(=O)c2ccc3c(c2)CCN3C(C)=O)CC1 returned FPR binder 1 and FPRL1 binder -8.
`C=CCOC(=O)C1C(=O)CC(C)(O)C(C(=O)OCC=C)C1c1ccc(OCC)cc1` (stereo not drawn) gave FPR binder 2 and FPRL1 binder 5.
Screening COc1ccc(CNC(=O)c2ccc(CN3CCOCC3)cc2)cc1 returned VCAM-1 inhibition inactive, VCAM-1 up imaging inactive, VCAM-1 imaging inactive, FPR binder 0 and FPRL1 binder 1.
For CC(=O)N1CCc2cc(S(=O)(=O)NCCC(=O)NC3CCN(Cc4ccccc4)CC3)ccc21 the results were FPR binder -2 and FPRL1 binder 5.
O=c1c2ccccc2nc(SCc2nnc(-c3ccccc3Br)o2)n1-c1ccccc1 was read as VCAM-1 inhibition inactive, VCAM-1 up imaging inactive, VCAM-1 imaging inactive, FPR binder -4 and FPRL1 binder -2.
`O=C(CN(C1CCCCC1)S(=O)(=O)c1ccccc1)NCc1cccnc1` gave VCAM-1 inhibition inactive, VCAM-1 up imaging inactive, VCAM-1 imaging inactive, FPR binder -4 and FPRL1 binder -2.
Screening CC1=C(C(=O)N2CCCCC2)C2(CCC(C)CC2)OC1=O (stereo not drawn) returned VCAM-1 inhibition inactive, VCAM-1 up imaging inactive, VCAM-1 imaging inactive, FPR binder -1 and FPRL1 binder -1.
`CC(=O)NCCn1ccc2ccccc21` gave VCAM-1 inhibition inactive, VCAM-1 up imaging inactive, VCAM-1 imaging inactive, FPR binder 2 and FPRL1 binder -4.
`COc1ccc(C2C(C(=O)NCCN3CCOCC3)c3ccccc3C(=O)N2C)cc1OC` (stereo not drawn) gave FPR binder -4 and FPRL1 binder -3.
`Cc1nc(-c2cccc(N)c2)cs1` gave VCAM-1 inhibition inactive, VCAM-1 up imaging inactive, VCAM-1 imaging inactive, FPR binder 6 and FPRL1 binder 6.
Screening CCCc1cc(C(=O)Nc2sc3c(c2C#N)CCC3)no1 returned VCAM-1 inhibition inactive, VCAM-1 up imaging inactive, VCAM-1 imaging inactive, FPR binder 4 and FPRL1 binder -1.
Screening COc1ccc(CCNC(=O)c2cnc3scc(C)n3c2=O)cc1OC returned VCAM-1 inhibition inactive, VCAM-1 up imaging inactive, VCAM-1 imaging inactive, FPR binder -3 and FPRL1 binder 8.
`Cc1nc(N2C(=O)C(=O)/C(=C(/O)c3ccccc3)C2c2ccco2)sc1C` (stereo not drawn) gave FPR binder 12 and FPRL1 binder 0.
`CCOC(=O)N1CCN(C(=O)CCn2nc(-c3ccccc3)ccc2=O)CC1` gave FPR binder -5 and FPRL1 binder -8.
CCOC(=O)CCn1c2nc(C)cc(C)c2c(=O)n1-c1ccccc1 was read as FPR binder 8 and FPRL1 binder 8.
O=C(c1ccc(S(=O)(=O)N2CCOCC2)cc1)N(c1ccc(F)cc1)C1C=CS(=O)(=O)C1 (stereo not drawn) was read as VCAM-1 inhibition inactive, VCAM-1 up imaging inactive, VCAM-1 imaging inactive, FPR binder 4 and FPRL1 binder -2.
CC(=O)c1coc2ccc(OCC(=O)O)cc12 was read as VCAM-1 inhibition inactive, VCAM-1 up imaging inactive, VCAM-1 imaging inactive, FPR binder -5 and FPRL1 binder -1.
Screening Cn1c(=O)cc(SCC(=O)NCCN2CCN(c3ccccc3F)CC2)c2cc(Cl)ccc21 returned FPR binder -6 and FPRL1 binder -2.
Screening Cc1c(C(=O)N2CCCC2)sc(NC(=O)c2cccs2)c1C#N returned VCAM-1 inhibition inactive, VCAM-1 up imaging inactive, VCAM-1 imaging inactive, FPR binder -1 and FPRL1 binder -6.
`CCc1nnc(NC(=O)c2cc3ccccc3oc2=O)s1` gave VCAM-1 inhibition inactive, VCAM-1 up imaging inactive, VCAM-1 imaging inactive, FPR binder 0 and FPRL1 binder 7.
For CCc1ccc(NC(=O)N(CCN2CCOCC2)C2CCN(C(C)=O)CC2)cc1 the results were FPR binder -8 and FPRL1 binder -7.
Screening Cc1cc(/N=C/N(C)C)on1 returned VCAM-1 inhibition inactive, VCAM-1 up imaging inactive, VCAM-1 imaging inactive, FPR binder 2 and FPRL1 binder -1.
COCCOC(=O)C1=C(C)N=c2s/c(=C\c3cccs3)c(=O)n2C1c1cccs1 (stereo not drawn) was read as VCAM-1 inhibition inactive, VCAM-1 up imaging inactive, VCAM-1 imaging inactive, FPR binder 0 and FPRL1 binder 10.
For COc1ccc(C(=O)c2ccc(N(C)C)cc2)c(OC)c1 the results were FPR binder 2 and FPRL1 binder 7.
CC(=O)Nc1ccc(S(=O)(=O)N2CCSC2C(=O)O)cc1 (stereo not drawn) was read as FPR binder -12 and FPRL1 binder -2.
Screening Cc1cccn2c(=O)c(C=Nc3ccccc3)c(NCc3ccco3)nc12 returned FPR binder -9 and FPRL1 binder 0.
`CCOC(=O)C1CCCN(c2c(N3CCN(C4CCCCC4)CC3)c(=O)c2=O)C1` (stereo not drawn) gave FPR binder 0 and FPRL1 binder 1.
For COC(=O)c1[nH]c2c(c1C)C(=O)CC(c1cccs1)C2 (stereo not drawn) the results were VCAM-1 inhibition inactive, VCAM-1 up imaging inactive, VCAM-1 imaging inactive, FPR binder 8 and FPRL1 binder -3.
Screening CCCS(=O)(=O)N1CCC(C(=O)NCc2ccccc2Cl)CC1 returned FPR binder -4 and FPRL1 binder 0.
For Cn1cccc1Cc1nnc(SCC(=O)NCC2CCCO2)n1-c1ccc(F)cc1 (stereo not drawn) the results were VCAM-1 inhibition inactive, VCAM-1 up imaging inactive, VCAM-1 imaging inactive, FPR binder -2 and FPRL1 binder -2.
Screening O=C(NCCCN1CCN(c2ccccc2F)CC1)C1CCN(S(=O)(=O)c2cccs2)CC1 returned FPR binder 2 and FPRL1 binder 8.
NC(=O)CSC1=Nc2ccccc2C2=NC(CCC(=O)NCc3ccc(F)cc3)C(=O)N12 (stereo not drawn) was read as FPR binder -1 and FPRL1 binder -3.
Screening Cc1nn(-c2ccccc2)c2sc(C(=O)NCCN3CCOCC3)cc12 returned FPR binder 0 and FPRL1 binder -2.
Screening Cc1ccc2nc(NC(=O)CN(C)S(=O)(=O)c3ccc(Br)s3)sc2c1 returned FPR binder 5 and FPRL1 binder -15.
For CCCS(=O)(=O)N1CCN(CC2CC3C=CC2C3)CC1 (stereo not drawn) the results were FPR binder -13 and FPRL1 binder 4.
`C=CCN1C(=Nc2cccnc2)SCC1(O)c1ccc(C)cc1` (stereo not drawn) gave FPR binder 15 and FPRL1 binder -2.
`CNC(=O)CN(c1ccc(C(C)C)cc1)S(C)(=O)=O` gave VCAM-1 inhibition inactive, VCAM-1 up imaging inactive, VCAM-1 imaging inactive, FPR binder -2 and FPRL1 binder 3.
For Cc1cccc(NC(=O)Cn2cccc2)c1 the results were FPR binder 0 and FPRL1 binder 3.
O=C(c1ccccc1Cl)N1CCC(c2nc3c(nnn3Cc3ccco3)c(=O)[nH]2)CC1 was read as FPR binder -3 and FPRL1 binder -2.
CCCN1CCN(C(=O)Cn2c(=O)oc3cc(S(=O)(=O)NCc4ccccc4)ccc32)CC1 was read as VCAM-1 inhibition inactive, VCAM-1 up imaging inactive, VCAM-1 imaging inactive, FPR binder 0 and FPRL1 binder -2.
For COC(=O)c1cc2occc2n1Cc1c(F)cccc1Cl the results were FPR binder -7 and FPRL1 binder -5.
COCCCNC(=O)CSc1nc2ccccc2c(=O)n1CCCC(=O)NCC1CCCO1 (stereo not drawn) was read as FPR binder -6 and FPRL1 binder -3.
CCN(CC)S(=O)(=O)c1ccc(N2CCCC2)c(C(=O)OCC(=O)/C(C#N)=C(\C)N)c1 was read as VCAM-1 inhibition inactive, VCAM-1 up imaging inactive, VCAM-1 imaging inactive, FPR binder 4 and FPRL1 binder -5.
`CCOC(=O)C1CCCN(C(=O)c2cc3c(C)nc4ccccc4c3o2)C1` (stereo not drawn) gave VCAM-1 inhibition inactive, VCAM-1 up imaging inactive, VCAM-1 imaging inactive, FPR binder 3 and FPRL1 binder -4.
For Cc1cc(NC(=O)C(C)(C)C)no1 the results were VCAM-1 inhibition inactive, VCAM-1 up imaging inactive, VCAM-1 imaging inactive, FPR binder 0 and FPRL1 binder 1.
For COCCN1C(=O)c2oc3ccccc3c(=O)c2C1c1ccc(OC)c(OC)c1 (stereo not drawn) the results were FPR binder -5 and FPRL1 binder -1.
Screening COc1cc2c(=O)n(CC3CCCO3)c(=O)n(CC(=O)Nc3cccc(Cl)c3)c2cc1OC (stereo not drawn) returned FPR binder 7 and FPRL1 binder -2.
`CCOc1ccc(N2CC(C(=O)Nc3ccc(F)cc3F)CC2=O)cc1` (stereo not drawn) gave VCAM-1 inhibition inactive, VCAM-1 up imaging inactive, VCAM-1 imaging inactive, FPR binder 3 and FPRL1 binder -2.
Screening Cc1ccc(N2CC(C)Cn3c2nc2c3c(=O)n(CC(=O)OCc3ccccc3)c(=O)n2C)cc1C (stereo not drawn) returned VCAM-1 inhibition inactive, VCAM-1 up imaging inactive, VCAM-1 imaging inactive, FPR binder 3 and FPRL1 binder -1.
`CCN1C(=O)c2ccccc2S(=O)c2ccc(C(=O)N3CCN(C(=O)c4ccco4)CC3)cc21` (stereo not drawn) gave FPR binder -8 and FPRL1 binder -10.
Screening CCCOc1ccc(-c2nnn(CC(=O)Nc3cccc(C(=O)OC)c3)n2)cc1 returned VCAM-1 inhibition inactive, VCAM-1 up imaging inactive, VCAM-1 imaging inactive, FPR binder 4 and FPRL1 binder 0.
For CNC(=O)c1ccsc1NC(=O)CN1C(=O)CCC1=O the results were VCAM-1 inhibition inactive, VCAM-1 up imaging inactive, VCAM-1 imaging inactive, FPR binder -1 and FPRL1 binder 2.
Cc1ccc(-c2nc(-c3ccccc3)no2)c(Cl)c1 was read as FPR binder -8 and FPRL1 binder -6.

Structures from the list above with fluorine:
O=C(c1ccc(S(=O)(=O)N2CCOCC2)cc1)N(c1ccc(F)cc1)C1C=CS(=O)(=O)C1 (stereo not drawn) was read as VCAM-1 inhibition inactive, VCAM-1 up imaging inactive, VCAM-1 imaging inactive, FPR binder 4 and FPRL1 binder -2.
Screening Cn1c(=O)cc(SCC(=O)NCCN2CCN(c3ccccc3F)CC2)c2cc(Cl)ccc21 returned FPR binder -6 and FPRL1 binder -2.
For Cn1cccc1Cc1nnc(SCC(=O)NCC2CCCO2)n1-c1ccc(F)cc1 (stereo not drawn) the results were VCAM-1 inhibition inactive, VCAM-1 up imaging inactive, VCAM-1 imaging inactive, FPR binder -2 and FPRL1 binder -2.
Screening O=C(NCCCN1CCN(c2ccccc2F)CC1)C1CCN(S(=O)(=O)c2cccs2)CC1 returned FPR binder 2 and FPRL1 binder 8.
NC(=O)CSC1=Nc2ccccc2C2=NC(CCC(=O)NCc3ccc(F)cc3)C(=O)N12 (stereo not drawn) was read as FPR binder -1 and FPRL1 binder -3.
For COC(=O)c1cc2occc2n1Cc1c(F)cccc1Cl the results were FPR binder -7 and FPRL1 binder -5.
`CCOc1ccc(N2CC(C(=O)Nc3ccc(F)cc3F)CC2=O)cc1` (stereo not drawn) gave VCAM-1 inhibition inactive, VCAM-1 up imaging inactive, VCAM-1 imaging inactive, FPR binder 3 and FPRL1 binder -2.

This is a subset; the hit share may differ from the screen's.
